High-throughput results: PubChem BioAssay, National Center for Advancing Translational Sciences (NCATS)
Menin-MLL FL inh = menin-MLL binding inhibition, fluorescein peptide; Fluorescence polarization, fluorescein-MLL peptide displacement from menin; FP activity change, % at 61.4 µM; 290,000 tested, under 10 active; AID 1766; inconclusive = falling polarisation curve, or a change in total fluorescence; inactive = total fluorescence flat and polarisation flat or rising; no compound was filed as active; the % refers to the polarisation; negative = inhibition;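 note: % of control where 0% means no effect; inhibitors lower the polarisation; unlabelled MLL peptide was the positive control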
Sfp PPTase inh = Sfp phosphopantetheinyl transferase inhibition; Q9F4F7; Biochemical Sfp PPTase activity, qHTS; Potency, µM, for the others: max response, negative = inhibition, usual class: inhibitors; actives 3.5% (n = 310,000); AID 1490; active = well fitted inhibition curve with a large enough effect; inconclusive = small, poorly fitted or top-dose-only effect, or another doubt; inactive = no such curve, though single readings can be large or run the other way;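 note: the enzyme is Sfp with the accession as filed and its product quenches rhodamine fluorescence; potency is the fitted concentration of half-maximal effect; 0% = enzyme reaction without inhibitor and -100% = no enzyme wells; top concentration of the series not given in the record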
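Step 1, compound plus 15 nM Sfp-PPTase, 15 min, room temperature. Step 2, add rhodamine-CoA (5 uM) and BHQ-2-YbbR (12.5 uM). Step 3, read 525/598 nm fluorescence at 0 and 30 min.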
TRPV1 potentiator = potentiators of human vanilloid receptor 1 (TRPV1). potentiation, % at 8.33 µM. TRPV1-expressing cells, Fluo-8 calcium influx, capsaicin EC20 potentiation; host cell line not named in the record; control for the full effect not named in the record. actives 0.02% (n = 320,000). Q8NER1; active means potentiation above 80%; inconclusive means 30% to 80%; inactive means below 30%; note: 0% is about no effect
Target sequence (Q8NER1 whole entry, looked up): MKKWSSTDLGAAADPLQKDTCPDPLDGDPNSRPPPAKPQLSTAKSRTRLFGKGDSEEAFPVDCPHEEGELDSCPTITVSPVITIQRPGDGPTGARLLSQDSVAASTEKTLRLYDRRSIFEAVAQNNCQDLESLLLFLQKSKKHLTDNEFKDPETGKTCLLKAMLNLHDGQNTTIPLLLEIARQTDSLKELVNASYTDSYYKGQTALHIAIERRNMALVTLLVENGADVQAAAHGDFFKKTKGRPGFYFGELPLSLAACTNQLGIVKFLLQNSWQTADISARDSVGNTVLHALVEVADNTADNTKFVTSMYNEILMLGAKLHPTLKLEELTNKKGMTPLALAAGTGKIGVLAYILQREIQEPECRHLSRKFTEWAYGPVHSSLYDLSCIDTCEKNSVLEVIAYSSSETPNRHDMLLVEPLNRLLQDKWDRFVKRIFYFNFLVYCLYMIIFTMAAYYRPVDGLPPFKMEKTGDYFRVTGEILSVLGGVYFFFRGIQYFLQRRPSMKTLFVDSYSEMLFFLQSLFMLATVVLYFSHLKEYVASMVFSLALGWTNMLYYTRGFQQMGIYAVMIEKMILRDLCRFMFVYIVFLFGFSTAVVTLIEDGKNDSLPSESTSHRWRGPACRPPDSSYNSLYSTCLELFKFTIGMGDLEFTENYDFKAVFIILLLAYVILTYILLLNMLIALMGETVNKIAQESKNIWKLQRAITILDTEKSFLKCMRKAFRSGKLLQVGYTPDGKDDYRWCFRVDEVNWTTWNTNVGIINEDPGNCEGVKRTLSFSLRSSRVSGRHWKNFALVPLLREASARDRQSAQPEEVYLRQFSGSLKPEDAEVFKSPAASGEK
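TRPV1-expressing cells were cultured overnight at 35.5C and loaded with Fluo-8 calcium dye for 40 to 90 min at room temperature. After a 10 s baseline, compound was added and calcium influx was read kinetically for 3 min (ex 480/em 520 nm).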
gsp agonist = gsp mutant agonism | Potency, µM (titrated, usually from 76.9 µM), for the others: top-dose activation (cAMP increase), usual class: activators | AID 624287 | gsp mutant cells, cAMP HTRF, 30 min; control for the full effect not named in the record | actives 0.13% (n = 340,000); active = well fitted activation curve with a large enough effect; inconclusive = small, poorly fitted or top-dose-only effect, or another doubt; inactive = no such curve, though single readings can be large or run the other way; cell line not stated here;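 note: phosphodiesterase inhibitor Ro 20-1724 added with compounds to block cAMP breakdown; potency is the fitted concentration of half-maximal effect; nearly all actives have a fitted effect of over 60% in size; about a fifth of the inactives were tested at one dose only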
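Cells in DMEM/10% FBS with G418 were pretreated with compounds in DMSO plus […] (300 uM stock) for 30 min at 37C. cAMP was measured by HTRF (cAMP-d2 plus anti-cAMP antibody-K) after 30 min at room temperature.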
ClpP mod = qHTS Assay for Activators of ClpP; ATP-dependent Clp protease proteolytic subunit (Bacillus subtilis (strain 168)), P80244; purified B. subtilis ClpP, FRET peptide cleavage, 20 min; Potency, µM (highest dose often 57.5 µM), inactives show at the top dose activity change, negative = active; actives 1.9% (n = 340,000); AID 651965, 2013; active = well fitted falling curve with a large enough effect; inconclusive = small, poorly fitted or top-dose-only effect; inactive = no such curve, though single readings can be large or run the other way; note: potency is the fitted concentration of half-maximal effect; the source files actives as falling curves though it sought activators and does not explain the sign; nearly all actives have a fitted effect of over 65% in size; many hits overshoot -100%
Target sequence (P80244 whole entry, looked up): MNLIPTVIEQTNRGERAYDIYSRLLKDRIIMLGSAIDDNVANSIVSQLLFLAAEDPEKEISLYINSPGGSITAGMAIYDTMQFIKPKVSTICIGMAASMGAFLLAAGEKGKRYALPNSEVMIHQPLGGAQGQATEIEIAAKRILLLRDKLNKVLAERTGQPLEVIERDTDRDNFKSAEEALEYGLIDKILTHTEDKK
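ClpP 10 microg/mL final, pH 8 Tris/KCl buffer with BSA, glycerol, Tween-20; compound pinned in; FRET-FV substrate; RT 20 min; Ex320/Em430; ΔFRET vs ADEP 5.8 microM, DMSO, no enzyme.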
TRPML1 blocker = human mucolipin-1 channel inhibition. Q9GZU1. TRPML1-inducible cells, Ca2+ dye fluorescence, FDSS; stronger effect = lower value; inhibition of EC80 agonist-evoked calcium signal. activity change, negative = inhibition, % (no concentration beside the values). actives 0.02% (n = 390,000). AID 624415; in the data active means activity change below about -50%; inconclusive means about -30% to -50%; inactive means above about -30%;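 note: stimulus is agonist 54-4 at its EC80 concentration; % is set by controls: 0 for no effect and ±100 for the full control effect; compound concentration not given in the record; the text of the record puts the active cut at -80%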
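Calcium fluorescence in TRPML1-DL cells induced overnight with Tet: a 110 s read after compound pin addition, then a 110 s antagonist read after challenge with 54-4 at 4 uM final (EC80).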
gsp antag = antagonizes gsp, the McCune-Albright syndrome mutation; gsp-mutant cells, cAMP HTRF, 30 min; control for the full effect not named in the record; Potency, µM (highest dose often 76.9 µM), for inactives: at the top dose activity change, negative = inhibition, actives largely listed as inhibitors; actives 0.4% (n = 340,000); active = falling curve of any shape with a large fitted effect; inconclusive = falling curve, mostly with a smaller effect; inactive = flat or rising curve; cell line not stated here;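 note: intracellular cAMP measured with PDE inhibitor Ro 20-1724 present during compound exposure; potency is the fitted concentration of half-maximal effect; % is set by controls: 0 for no effect and ±100 for the full control effect; nearly all actives have a fitted effect of over 65% in size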
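G418-selected cells were plated in DMEM/10% FBS for 16-24 h at 37C, then treated with compounds plus the PDE inhibitor […] (300 uM solution added) for 30 min at 37C. Intracellular cAMP was measured by HTRF after 30 min lysis at room temperature.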
* marks the source's active call; other numbers are inactive results; u = inconclusive; x = not tested or not shown; [ ] = remark or other dose.

SMILES	Menin-MLL FL inh	Sfp PPTase inh	TRPV1 potentiator	gsp agonist	ClpP mod	TRPML1 blocker	gsp antag
CC(=O)N1C(=O)C(=C2C=C(C)OC(C)=C2)c2ccccc21	u	17.0%	-9.4	0.0%	2.9%	1.0	5.0%
COC(=O)Cc1n[nH]c(=O)c2ccccc12	-2.4	15.8%	-1.4	-31.7%[inhibitor]	-0.5%	-15.0	1.1%
COc1ccc(C(O)C(CC(=O)NCCCOC(C)C)C(=O)NCCCOC(C)C)cc1OC (stereo not given)	-0.8	-13.3%	-8.7	-8.3%	0.7%	-9.9	15.4%
CCCCN(C(=O)c1[nH]c(C)c(C(=O)OCC)c1C)c1c(N)n(CCCC)c(=O)[nH]c1=O	x	x	5.6	-6.1%[15.4 µM]	-3.3%	8.5	9.0%
Cc1cc([N+](=O)[O-])ccc1NCc1ccc2ccccc2c1	1.1	2.6%	-4.9	22.0%	0.1%	9.5	-5.2%
CSCC(=O)N1CCC(n2nccc2NC(=O)CCc2ccccc2)CC1	x	30.1%[activator]	19.2	-48.0%[inhibitor]	-0.5%	19.3	22.4%
COC(=O)c1ccc2c(=O)[nH]c(CSc3nnc(C(F)(F)F)n3C)nc2c1	4.2	7.6%	23.1	8.8%	u	10.7	6.5%
O=C(NCCN1CCOCC1)c1ccc2c(c1)N(Cc1c(F)cccc1Cl)C(=O)c1ccccc1S2	3.2	-6.1%	-4.3	u	-3.5%	6.2	-13.9%
Cc1ccc(CN2C(=NC(=O)CCC(=O)O)SC3CS(=O)(=O)CC32)cc1 (stereo not given)	1.9	4.3%	3.1	9.9%[15.4 µM]	x	11.9	1.4%
CCCNC(=O)Nc1ccc(C(F)(F)F)cc1	-1.3	11.3%	-12.8	u	1.4%	4.0	16.3%
O=c1c(Cc2c(F)cccc2Cl)c(O)ccn1CCc1ccccn1	-1.6	3.6%	14.2	-70.9%[inhibitor]	-3.1%	-6.0	8.1%
COc1cc2c(C(=O)O)c(C)n(C)c2c2ccccc12	-7.4	-1.1%	9.0	u	3.2%	21.3	-1.3%
O=C(CCN1C(=O)C2C3C=CC(C3)C2C1=O)Nc1ccc2ncccc2c1 (stereo not given)	5.2	-4.9%	7.0	-3.2%	-9.9%	22.7	0.2%
S=c1[nH]nc(NCCc2ccccc2)s1	-0.2	22.4µM*	-5.0	-11.6%	x	-1.1	6.7%
CC(C)(C)c1cc(CCC(=O)NNC(=O)c2ccco2)cc(C(C)(C)C)c1O	0.7	-11.6%	14.0	10.6%	1.2%	4.0	17.7%
C[C@]12C=CC(=O)C=C1CC[C@@H]1[C@@H]2C(=O)C[C@@]2(C)[C@H]1CC[C@]2(O)C(=O)COC(=O)CCC(=O)O	3.0	20.6%	19.7	-0.4%	x	-12.5	-6.3%
O=C1Nc2ccc([N+](=O)[O-])cc2OC1CCN1CCCC1 (stereo not given)	2.1	17.4%	17.3	-1.2%[15.4 µM]	x	-14.2	13.5%
O=C(C1CCCN(Cc2cccs2)C1)N1CCCCCC1 (stereo not given)	0.1	-15.4%	-5.9	33.4%	3.7%	0.3	8.2%
CN1c2ccccc2C2(C)CCCC3=Cc4cccc([N+](=O)[O-])c4OC312 (stereo not given)	0.2	-8.0%	9.4	-43.5%[inhibitor]	-2.3%	-25.5	-7.2%
CSC1=C(C#N)C(c2ccccc2Cl)C2=C(N1)c1ccccc1C2=O (stereo not given)	-0.3	-8.6%	u	-45.3%[inhibitor]	-3.4%	5.0	-2.3%
C=CCN=C(NC#N)SCCc1ccccc1	-0.2	-5.8%	-10.9	9.8%	-3.7%	0.5	-8.3%
O=C(O)CN(c1ccccc1[N+](=O)[O-])S(=O)(=O)c1ccccc1	8.2	13.0%	-5.2	3.8%[15.4 µM]	x	4.3	-3.0%
c1nnc(NCNc2nncs2)s1	x	x	x	u	-0.9%	3.1	x
Cc1cc(Br)ccc1SCC(=O)N1CCN(S(=O)(=O)c2ccccc2)CC1	x	10.7%	4.3	-2.2%	-0.5%	13.2	-16.4%
O=S(=O)([O-])CCC[n+]1c(SCCCS(=O)(=O)O)sc2ccc(Cl)cc21	5.4	3.16µM*	-19.8	29.3%	1.4%	-2.5	10.5%
CC1CCCCC12NC(=O)N(CC(=O)OCC(=O)Nc1ccc(F)cc1[N+](=O)[O-])C2=O (stereo not given)	x	x	x	-0.3%[15.4 µM]	2.5%	26.0	-12.1%
COC1=CC(=Cc2c(N)n3nc(CC(=O)N4CCCCC4)sc3nc2=O)C=C(OC)C1=O	x	20.8%	-8.3	18.2%	-1.1%	9.9	-0.8%
O=C(NCc1cccnc1)C1c2ccccc2C(=O)N1C1CCCCCC1 (stereo not given)	2.8	12.1%	-1.7	-21.7%	-1.6%	-4.2	-9.4%
Cc1cn(-c2ccccc2)c(C)c1/C=N\Nc1nc(N2CCOCC2)nc(N2CCOCC2)n1	-0.9	0.5%	7.0	-3.8%	-10.0%	20.4	-15.9%
N/C(=N\c1nc2ccccc2o1)NC(=O)C(Cc1ccccc1)N1C(=O)c2ccccc2C1=O (stereo not given)	1.3	13.6%	4.4	21.0%	-1.2%	8.0	-8.1%
COCCCN1C(=O)c2ccc(C(=O)Nc3ccc(OC)cc3OC)cc2C1=O	0.4	14.8%	5.7	-47.3%[inhibitor]	-0.2%	8.6	-8.9%
Cc1nn(Cc2ccccc2)c(=O)c2nn(-c3ccc(Cl)cc3)c(C)c12	1.3	1.2%	-1.7	3.1%	-8.0%	73.0	-23.0%
O=[N+]([O-])c1ccc(C2CCCC/C2=N/OCc2ccccc2F)c([N+](=O)[O-])c1 (stereo not given)	-1.5	-9.7%	x	-3.6%	1.1%	63.6	-2.1%
Cc1ccc(C(=O)NNC(=O)c2ccc(NS(=O)(=O)c3cccs3)cc2)s1	x	x	-18.9	-17.0%	u	-3.8	0.8%
CCc1ccc(NC(=O)C2CCN(S(=O)(=O)c3ccc4c(c3)NC(=O)CO4)CC2)cc1	x	24.7%	-5.2	37.2%	-2.7%	3.3	-5.7%
Cc1nc(SCC(=O)Nc2ccccc2C(F)(F)F)c2c(=O)n(C)c(=O)n(C)c2n1	x	x	x	-8.2%	0.7%	6.4	16.9%
COc1ccc(N2CCN(C(=O)COC(=O)c3ccc(CSC)o3)CC2)cc1	x	x	1.4	u	-1.6%	-0.9	-15.9%
CC(C)(C)C(=O)CSc1nc(N)cc(=O)[nH]1	2.1	-1.1%	1.9	-7.9%	0.0%	30.3	7.8%
CC1=C(C(=O)N(C)C)CC(CC(=O)NCCc2ccccn2)C(=O)N1Cc1ccc(C(C)(C)C)cc1 (stereo not given)	x	x	x	-29.8%	0.4%	-5.5	x
CC(C)(C)OC(=O)N1CCC[C@@H]1CO	0.2	-0.8%	1.6	x	-14.7%	-8.6	2.5%
CCC(CC)C(=O)Nc1cc(Cl)ccc1C	-1.1	23.7%	-4.1	x	x	x	x
COc1ccccc1CC(=O)NCCN1CCCCC1	-0.1	18.7%	-29.6	-14.4%[15.4 µM]	-0.2%	-1.9	-2.9%
CCOc1ccc(CCNC(=O)COC(=O)c2ccc(OC(C)C)cc2)cc1OCC	x	x	-19.6	-22.9%[15.4 µM]	-2.5%	9.4	5.6%
Cc1cc(C)cc(NCc2ccncc2)c1	2.7	18.7%	12.0	-6.7%	0.2%	-11.2	4.3%

Reformatted with two lines to a compound: part of the list above
Fields: Menin-MLL FL inh	Sfp PPTase inh	TRPV1 potentiator	gsp agonist	ClpP mod	TRPML1 blocker	gsp antag
> Cc1nn(Cc2ccccc2)c(=O)c2nn(-c3ccc(Cl)cc3)c(C)c12
    1.3	1.2%	-1.7	3.1%	-8.0%	73.0	-23.0%
> O=[N+]([O-])c1ccc(C2CCCC/C2=N/OCc2ccccc2F)c([N+](=O)[O-])c1 (stereo not given)
    -1.5	-9.7%	x	-3.6%	1.1%	63.6	-2.1%
> Cc1ccc(C(=O)NNC(=O)c2ccc(NS(=O)(=O)c3cccs3)cc2)s1
    x	x	-18.9	-17.0%	u	-3.8	0.8%
> CCc1ccc(NC(=O)C2CCN(S(=O)(=O)c3ccc4c(c3)NC(=O)CO4)CC2)cc1
    x	24.7%	-5.2	37.2%	-2.7%	3.3	-5.7%
> Cc1nc(SCC(=O)Nc2ccccc2C(F)(F)F)c2c(=O)n(C)c(=O)n(C)c2n1
    x	x	x	-8.2%	0.7%	6.4	16.9%
> COc1ccc(N2CCN(C(=O)COC(=O)c3ccc(CSC)o3)CC2)cc1
    x	x	1.4	u	-1.6%	-0.9	-15.9%
> CC(C)(C)C(=O)CSc1nc(N)cc(=O)[nH]1
    2.1	-1.1%	1.9	-7.9%	0.0%	30.3	7.8%
> CC1=C(C(=O)N(C)C)CC(CC(=O)NCCc2ccccn2)C(=O)N1Cc1ccc(C(C)(C)C)cc1 (stereo not given)
    x	x	x	-29.8%	0.4%	-5.5	x
> CC(C)(C)OC(=O)N1CCC[C@@H]1CO
    0.2	-0.8%	1.6	x	-14.7%	-8.6	2.5%
> CCC(CC)C(=O)Nc1cc(Cl)ccc1C
    -1.1	23.7%	-4.1	x	x	x	x
> COc1ccccc1CC(=O)NCCN1CCCCC1
    -0.1	18.7%	-29.6	-14.4%[15.4 µM]	-0.2%	-1.9	-2.9%
> CCOc1ccc(CCNC(=O)COC(=O)c2ccc(OC(C)C)cc2)cc1OCC
    x	x	-19.6	-22.9%[15.4 µM]	-2.5%	9.4	5.6%
> Cc1cc(C)cc(NCc2ccncc2)c1
    2.7	18.7%	12.0	-6.7%	0.2%	-11.2	4.3%
